gsp agonist = agonists of gsp mutant (McCune-Albright syndrome); Potency, µM (top dose mostly 76.9 µM), for the others: top-dose activation (cAMP increase), hits mostly activators; gsp mutant cells, cAMP HTRF, 30 min; control for the full effect not named in the record; 340,000 compounds, 0.13% hits; active = well fitted activation curve with a large enough effect; inconclusive = small, poorly fitted or top-dose-only effect, or another doubt; inactive = no such curve, though single readings can be large or run the other way; cell line not stated here;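 note: phosphodiesterase inhibitor Ro 20-1724 added with compounds to block cAMP breakdown; potency is the fitted concentration of half-maximal effect; nearly all actives have a fitted effect of over 60% in size; about a fifth of the inactives were tested at one dose only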
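Cells in DMEM/10% FBS with G418 were pretreated with compounds in DMSO plus […] (300 uM stock) for 30 min at 37C. cAMP was measured by HTRF (cAMP-d2 plus anti-cAMP antibody-K) after 30 min at room temperature.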
TRPV1 PAM = human TRPV1 potentiation; Q8NER1; TRPV1-expressing cells, Fluo-8 calcium influx, capsaicin EC20 potentiation; host cell line not named in the record; control for the full effect not named in the record; potentiation, % at 8.33 µM; 320,000 compounds, 0.02% hits; AID 540277; active means potentiation above 80%; inconclusive means 30% to 80%; inactive means below 30%; note: 0% is about no effect
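Fluo-8 calcium influx in TRPV1-expressing cells, kinetic read (ex 480/em 520 nm). Compound added and read 3 min for agonist activity, followed by capsaicin at EC20 final and 2 min further read for enhancement.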
Menin MLL FP FL = menin-MLL binding inhibition, fluorescein peptide; Fluorescence polarization, fluorescein-MLL peptide displacement from menin; FP activity change, % at 61.4 µM; AID 1766; 290,000 tested, under 10 active; inconclusive = falling polarisation curve, or a change in total fluorescence; inactive = total fluorescence flat and polarisation flat or rising; no compound was filed as active; the % refers to the polarisation; negative = inhibition;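 note: % of control where 0% means no effect; inhibitors lower the polarisation; unlabelled MLL peptide was the positive control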
D2 PAM = positive allosteric modulators of human D2 dopamine receptor; P14416; DiscoveRx D2 beta-arrestin cells, luminescence, 90 min; 100% = 57 uM dopamine signal; potentiation, % (no concentration beside the values); 360,000 compounds, 0.23% hits; AID 624464; active = potentiation of 50% or more; inconclusive = 30% to 50%; inactive = 30% or less;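 note: compound concentration not given in the record; tested on top of an EC20 dose of dopamine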
Target sequence (P14416 whole entry, looked up): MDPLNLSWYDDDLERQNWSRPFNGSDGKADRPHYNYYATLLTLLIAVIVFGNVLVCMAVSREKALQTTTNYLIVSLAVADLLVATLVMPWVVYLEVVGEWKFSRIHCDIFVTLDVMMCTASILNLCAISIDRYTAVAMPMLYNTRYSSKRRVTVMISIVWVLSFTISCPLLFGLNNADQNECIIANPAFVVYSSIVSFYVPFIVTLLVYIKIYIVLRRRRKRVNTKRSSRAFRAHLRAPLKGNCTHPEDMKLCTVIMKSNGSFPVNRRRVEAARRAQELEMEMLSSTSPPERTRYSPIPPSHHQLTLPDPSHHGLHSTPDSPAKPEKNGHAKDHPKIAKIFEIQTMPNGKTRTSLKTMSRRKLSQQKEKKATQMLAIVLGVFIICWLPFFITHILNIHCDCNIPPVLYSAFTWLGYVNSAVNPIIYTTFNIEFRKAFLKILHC
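PathHunter beta-arrestin assay in DiscoveRx D2 cells. Compounds were added with an EC20 of dopamine (50 nM final) for 90 min at 37 deg C. Luminescence was read 1 h after detection reagent, with 57 uM dopamine as the EC100 control.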
gsp antag = antagonizes gsp, the McCune-Albright syndrome mutation. gsp-mutant cells, cAMP HTRF, 30 min; control for the full effect not named in the record. Potency, µM (series often up to 76.9 µM), without a hit: top-dose activity change, negative = inhibition, most hits filed as inhibitors. 340,000 compounds, 0.4% hits. AID 624288; active = falling curve of any shape with a large fitted effect; inconclusive = falling curve, mostly with a smaller effect; inactive = flat or rising curve; cell line not stated here;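 note: intracellular cAMP measured with PDE inhibitor Ro 20-1724 present during compound exposure; potency is the fitted concentration of half-maximal effect; % is set by controls: 0 for no effect and ±100 for the full control effect; nearly all actives have a fitted effect of over 65% in size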
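HTRF cAMP measurement after 30 min RT detection following 30 min, 37C compound treatment alongside […] (added as 300 uM solution) in G418-selected cells seeded at 2000/well and grown 16–24 h.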
Sfp PPTase inh = Sfp phosphopantetheinyl transferase inhibition. Q9F4F7. Biochemical Sfp PPTase activity, qHTS. Potency, µM, without a hit: max response, negative = inhibition, usual class: inhibitors. 310,000 compounds, 3.5% hits. AID 1490; active = well fitted inhibition curve with a large enough effect; inconclusive = small, poorly fitted or top-dose-only effect, or another doubt; inactive = no such curve, though single readings can be large or run the other way;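 note: the enzyme is Sfp with the accession as filed and its product quenches rhodamine fluorescence; potency is the fitted concentration of half-maximal effect; 0% = enzyme reaction without inhibitor and -100% = no enzyme wells; top concentration of the series not given in the record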
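Sfp 15 nM + cpd, 15 min RT; start w/ rhodamine-CoA 5 uM, BHQ-2-YbbR 12.5 uM (final); 50 mM Hepes pH 7.6, 10 mM MgCl2, 0.01% NP-40, 0.01% BSA; read 525/598 nm at 0 and 30 min.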
ClpP mod = qHTS Assay for Activators of ClpP. purified B. subtilis ClpP, FRET peptide cleavage, 20 min. Potency, µM (top dose mostly 57.5 µM), inactives show at the highest dose activity change, negative = active. 340,000 compounds, 1.9% hits. AID 651965, 2013; active = well fitted falling curve with a large enough effect; inconclusive = small, poorly fitted or top-dose-only effect; inactive = no such curve, though single readings can be large or run the other way; note: potency is the fitted concentration of half-maximal effect; the source files actives as falling curves though it sought activators and does not explain the sign; nearly all actives have a fitted effect of over 65% in size; many hits overshoot -100%
Target sequence (P80244 whole entry, looked up): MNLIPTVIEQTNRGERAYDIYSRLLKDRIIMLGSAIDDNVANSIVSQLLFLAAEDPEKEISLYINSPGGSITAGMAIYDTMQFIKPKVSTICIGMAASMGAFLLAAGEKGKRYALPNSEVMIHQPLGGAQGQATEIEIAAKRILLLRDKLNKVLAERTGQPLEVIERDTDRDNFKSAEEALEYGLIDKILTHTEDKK
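ClpP 10 microg/mL final, pH 8 Tris/KCl buffer with BSA, glycerol, Tween-20; compound pinned in; FRET-FV substrate; RT 20 min; Ex320/Em430; ΔFRET vs ADEP 5.8 microM, DMSO, no enzyme.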
* marks the source's active call; other numbers are inactive results; ? = inconclusive; . = no result given; [ ] = another dose, or the depositor's remark.

smiles | gsp antag | Menin MLL FP FL | ClpP mod | D2 PAM | Sfp PPTase inh | gsp agonist | TRPV1 PAM
COc1ccc(/C(C)=N/N=C(N)N)c(O)c1 | 10% | 3.0 | . | -16 | 11% | -1%[15.4 µM] | -4
CC(C)C(C)NC(=O)COn1nnc2ccc(S(=O)(=O)N3CCOCC3)cc21 (stereo not given) | 5% | . | -0.6% | 9 | . | 27% | 1
O=C(NCc1cccnc1)c1ccc(Cl)cc1[N+](=O)[O-] | 1% | 0.7 | 1.5% | -7 | 6% | 12% | 10
Cc1ccccc1NC(=S)N1CCCCCC1 | 0% | . | 0.4% | 9 | 10% | 2% | 5
COC(=O)c1cccc(NC(=O)CN2CCC(NC(=O)c3cc(OC)c(OC)c(OC)c3)CC2)c1 | -7% | -0.1 | -0.4% | -11 | 11% | -2% | 0
O=C(Cn1nc(C(F)(F)F)c2c1CCCC2)NC1CCCC1 | 4% | 6.2 | 0.6% | 10 | 0% | 11% | .
CCCCCCn1c(CN2CCN(CCO)CC2)nc2c1c(=O)n(C)c(=O)n2C | 9% | 0.9 | 1.7% | -12 | 4% | ? | 0
Cc1c(-c2ccc(OCCN3CCOCC3)cc2)c(=O)oc2ccc3ccccc3c12 | . | . | -9.2% | 2 | . | -38%[inhibitor] | .
Cc1ccc(CS(=O)(=O)CCC(=O)NCCCN2CCCC2)cc1 | 0% | -0.2 | -3.4% | -2 | 15% | 5% | -13
Cc1ccc2occ(/C=N/NC(=O)[C@@H](N)Cc3ccccc3)c(=O)c2c1 | 9% | 3.2 | . | -12 | 23% | 13%[15.4 µM] | -8
CCOC(=O)c1ccc(NC(=O)c2cn(CCC#N)nc2-c2ccc3c(c2)OCCO3)cc1 | -22% | -0.7 | -4.3% | 8 | -10% | 7% | -6
COc1ccc(C2C3=C(CC(C)(C)CC3=O)Oc3ncn4nc(-c5ccccc5)nc4c32)cc1 (stereo not given) | 8% | . | . | -3 | . | -2%[15.4 µM] | .
O=C(COC(=O)/C=C/c1ccc([N+](=O)[O-])cc1)NC1CCCCC1 | 0% | . | -3.7% | -1 | . | 28% | -2
CC(C)c1c(C(=O)N/N=C/c2ccc3c(c2)OCO3)nnn1-c1nonc1N | -30% | 1.2 | -21% | -3 | 8% | ? | -20
COc1ccc(C(=O)COC(=O)[C@H](C)Nc2ccc(C(F)(F)F)cc2[N+](=O)[O-])c(OC)c1 | 1% | -2.0 | 0.6% | 12 | 2% | -12% | -5
COc1cccc(C2=NOC(C(=O)Nc3cc(C)nn3-c3ccccc3)C2)c1OC (stereo not given) | -4% | 6.0 | -0.8% | -4 | ? | -58%[inhibitor] | 0
CCc1c(C(=O)Nc2cc(C(=O)OC)ccc2C)csc1C | -9% | 5.1 | 0.2% | -22 | 10% | 17% | -23
CC12COC3(C(=O)Nc4ccccc4F)CC1CCC32C (stereo not given) | 8% | -0.7 | -1.9% | -2 | 14% | 8% | 0
COc1ccc(NC(=O)C2CSC3c4ccccc4C(=O)N23)cc1 (stereo not given) | -7% | 2.0 | -1.2% | -9 | -18% | 7% | -25
COc1ccc(C(=O)NNC(=S)NC(=O)c2cccnc2)cc1 | -33% | -6.1 | . | -10 | -13% | -42%[15.4 µM] | 2
O=C1CC(NS(=O)(=O)c2cccs2)CN1c1ccccc1 (stereo not given) | 9% | . | -12% | 4 | . | -4%[15.4 µM] | 2
CCCOc1ccc(NC(=O)CC2C(=O)N(C)C(=S)N2Cc2cccs2)cc1 (stereo not given) | -26% | -0.7 | -2.6% | -7 | 0% | -30% | 26
O=C(CSc1cnc2ccccc2n1)c1ccc(F)cc1 | -13% | 3.9 | -2.0% | -9 | -61% | ? | -5
COc1ccc(C(c2c(O)cc(C)oc2=O)c2c(O)cc(C)oc2=O)cc1 | -1% | 0.7 | -0.1% | -12 | 10% | 3% | 19
CCOC(=O)c1nc[nH]c1C | 13% | 3.0 | 1.3% | -8 | 21% | -1% | 2
COc1ccc(CCn2c(=N)c(C(=O)NC3CCCCC3)cc3c(=O)n4ccccc4nc32)cc1 | -3% | . | -1.6% | 6 | -11% | -24% | -6
C=CCn1c(=O)c2ccccc2n2c(SCC(=O)c3ccccc3)nnc12 | 6% | 1.4 | 0.3% | -6 | 4% | -45%[inhibitor] | -15
Cc1ccnc(NS(=O)(=O)c2ccc(NC(=O)Cc3ccc(Br)cc3)cc2)n1 | -2% | 3.0 | -3.2% | -4 | 13% | ? | 7
S=C(NCc1ccco1)NC1CCCc2ccccc21 (stereo not given) | 0% | 0.5 | . | -2 | 19% | -11%[15.4 µM] | -9
COc1ccc([C@@H]2[C@@H]3C(=O)N(C(C)(C)C)C(=O)[C@@H]3[C@]3(Cc4ccccc4)C(=O)N(c4ccc(OC)cc4)C(=O)N23)cc1 | 0% | . | 0.1% | -11 | . | ? | 11
COc1ccc(C(=O)NCC2(N3CCCCC3)CCCCC2)cc1S(=O)(=O)N(C)C | 6% | 1.3 | . | -15 | 5% | ? | 2
CC(=O)Nc1ccc(S(=O)(=O)N2CCN(c3cc(C)nc4ncnn34)CC2)cc1 | -28% | -1.8 | . | -5 | 12% | 27%[15.4 µM] | 15
CCCC(c1nnnn1Cc1ccc(OC)cc1)N1CCN(c2ccccc2)CC1 (stereo not given) | -4% | -0.8 | 0.8% | -5 | 13% | 14% | 13
C=CCN=C1CC(C)(C)CC(=O)/C1=C(\O)c1ccccc1 | -2% | -4.7 | -0.8% | -3 | 14% | -74%[inhibitor] | 3
Cc1cccc(NS(=O)(=O)c2ccc3c(c2)NC(=O)CO3)c1C | 0% | . | -1.4% | -6 | 17% | 22% | -18
CC(C)c1ccc(C(=O)CSc2ncn[nH]2)cc1 | 15% | 1.9 | -0.6% | -1 | 56µM* | -17% | -10
Cc1nnc(SCc2cccc([N+](=O)[O-])c2)o1 | 10% | -3.2 | . | -11 | 22% | ? | -1
COc1ccc(Cc2noc(CN(C)Cc3cccc(-n4cccn4)c3)n2)cc1OC | -7% | 4.8 | . | -12 | -8% | -1%[15.4 µM] | -19
Cc1ccc(S(=O)(=O)N(CC(=O)c2ccc(Cl)cc2)C(=O)N2CCN(C)CC2)cc1 | 11% | . | -8.7% | -13 | . | -4%[15.4 µM] | 5
CN(C(=O)COC(=O)COc1ccc(N(C)S(=O)(=O)c2ccc(Cl)cc2)cc1)c1ccccc1 | -12% | . | 2.9% | 0 | . | 2% | .
CCC(C)C1C(C#N)=C(N)OC2=C1C(=O)CC(C)(C)C2 (stereo not given) | -11% | -2.6 | 1.1% | -7 | 14% | 6% | -1
O=C(Nc1nnc(SCC(=O)N2CCOCC2)s1)c1ccccc1Cl | -22% | 0.0 | 0.1% | -3 | 16% | -23% | 18
O=C(CCNS(=O)(=O)c1ccc(Cl)cc1)N1CCCCCC1 | 11% | . | -1.3% | -5 | 19% | 25% | -15
COc1ccc(CC2(CO)CCN(Cc3cnn(-c4ccccc4)c3)CC2)cc1 | 13% | -0.3 | . | -19 | 12% | -26%[15.4 µM] | -4
CC(=O)n1cc([C@@H]2C=C(C(=O)N3CCN(C)CC3)O[C@H](OCc3ccc(CO)cc3)C2)c2ccccc21 | -5% | . | 0.7% | -9 | . | 22% | .
c1ccc(Oc2nnc(-c3cccs3)c3ccccc23)cc1 | -29% | 1.8 | 1.0% | -10 | 8% | ? | -1
O=C(NC1CCCCC1)C(c1ccncc1)N(Cc1ccc2c(c1)OCO2)C(=O)C(F)(F)F (stereo not given) | 11% | -1.5 | -0.3% | 13 | ? | 0% | -4
CCOc1ccc(-n2nnnc2SCC(=O)NC2CCCC2)cc1 | -5% | . | . | -3 | 8% | 22%[15.4 µM] | -1
CC(C)N1CCc2c(sc(NC(=O)Cc3ccccc3)c2C#N)C1 | 6% | 4.0 | -5.7% | -8 | 11% | 16% | 9
COc1cc(-c2cc(C(=O)Nc3ccc(N4CCOCC4)cc3)c3ccccc3n2)cc(OC)c1OC | 1% | 0.4 | 0.0% | -10 | 9% | 18% | 19
O=C(C1=C(O)C(=O)N(CCN2CCOCC2)C1c1cccc([N+](=O)[O-])c1)c1cc2ccccc2o1 (stereo not given) | . | . | 2.2% | -15 | . | -27% | .
CCC(C)(C)C1CCc2[nH]nc(C(=O)NCc3ccc(Cl)cc3)c2C1 (stereo not given) | 6% | . | -1.4% | -3 | . | . | ?
COCCNCCCCOc1ccc(C)cc1[N+](=O)[O-] | 11% | 9.3 | -0.3% | -25 | -2% | -44%[inhibitor] | 7
CCOc1ccc(CN2CCN(C3CCSCC3)CC2CCO)cc1 (stereo not given) | 15% | 0.9 | . | -17 | 12% | 7%[15.4 µM] | 0
COC(=O)[C@]1(Cc2ccccc2)N[C@H](CN(C)C(=O)c2ccc(C)cc2)[C@@H]2C(=O)N(Cc3ccccc3)C(=O)[C@@H]21 | -22% | . | -0.1% | -5 | . | . | .
COc1ccccc1Nc1nc(C2(C)CCC(=O)O2)cs1 (stereo not given) | 0% | 1.4 | -1.1% | -10 | 13% | 23% | -19
COC(=O)Cn1c(=O)cnc2ccccc21 | 5% | 4.8 | ? | -7 | 0% | 1% | 2
CCS(=O)(=O)c1ccc2c(c1)N(S(=O)(=O)c1ccc(OC)cc1)CC(C(=O)O)O2 (stereo not given) | 0% | 0.8 | 1.1% | -6 | 22% | ? | -4
N#Cc1c(/N=C/c2ccco2)sc2c1CCCCC2 | -28% | -2.1 | 1.6% | 13 | 0% | -11% | 29
O=C(c1ccc(Cl)c(S(=O)(=O)NCc2ccco2)c1)N1CCN(c2ccc(F)cc2)CC1 | -21% | -0.7 | 1.8% | -4 | -3% | -27% | 5

Additional compounds.
smiles | gsp antag | Menin MLL FP FL | ClpP mod | D2 PAM | Sfp PPTase inh | gsp agonist | TRPV1 PAM
CCOc1ccccc1NC(=O)/C(C#N)=C/c1c(C)nn(-c2ccccc2)c1Cl | 17% | 11 | 1.0% | -9 | 12% | -9%[15.4 µM] | 5
Cc1ocnc1C(=O)Nc1ccc(Cl)cc1 | 7% | -0.5 | -12% | 6 | -7% | 1% | 28
CCOc1ccc(NC(=O)CSc2nc3c(c(=O)n2C)SC(C)C3)cc1 (stereo not given) | -12% | 4.0 | 0.4% | 6 | 7% | 11% | 9
COCCCNC(=O)c1c(N)n(-c2ccc(S(N)(=O)=O)cc2)c2nc3ccccc3nc12 | -4% | -5.2 | 16µM* | 0 | 3% | 13% | -8
